Compound activity (PubChem)
NPYLR7 ag: activates Aedes aegypti NPYLR7 receptor; AID 1259423; HEK293T NPYLR7/Galpha15, GCaMP6s calcium fluorescence; activation, % at 10 µM; 0.15% of 270,000 active; in the data active = activation above about 40%;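 also: 0% = vehicle and 100% = reference agonist at the receptor; some compounds past the cut are filed as inactive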
NPYLR7 ag max-min: also measured in NPYLR7 ag; calls as there; activation, %; measured here: Max-Min RFU normalised activation; some inactives read as strong as hits;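 span of the calcium signal over five minutes; 0% = vehicle and 100% = native peptide agonist; compound fluorescence can raise it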
An asterisk follows results filed as active; & = joins results of further samples. These rows are one share of the data. The share of hits here may be higher or lower than overall.

SMILES	NPYLR7 ag	NPYLR7 ag max-min
Cc1c(C(=O)NCCCN2CCCCC2C)cnc2c(-c3ccc(C(C)C)cc3)cnn12 (stereo not drawn)	3	1
Cc1cc(C)c(S(=O)(=O)N(CC(=O)N(Cc2ccccc2)Cc2sccc2C)C(C)C)c(C)c1	0	10
COCC(C)NC(=O)c1c(O)nc2scc(C)n2c1=O (stereo not drawn)	-3	12
CCN(CC)C(=O)[C@@H]1C[C@@H](N)CN1C(=O)c1ccc(Cl)c(F)c1	-7	-9
CS(=O)(=O)c1ccc(-c2nccn2CCCc2ccccc2)cc1	0	21
NS(=O)(=O)c1cnc(N2CCCC2Cc2cccc(F)c2)s1 (stereo not drawn)	2&9	-11&9
NS(=O)(=O)Cc1ccc(CO)cc1	0	30
NC(=O)NO	-2&0	-9&-24
COc1cc(OC)cc(-c2cc3c(Nc4ccncc4)nccc3[nH]2)c1	-4	-8
COc1ccc(C)cc1NC(=O)NCCn1ncccc1=O	-10	-18
COc1ccc(S(=O)(=O)N2CCC(Cc3ccccc3)CC2)cc1N1CCN(C(=O)c2ccco2)CC1	-2	11
CN(C)c1ccc(N)cc1CN(Cc1ccco1)C(=O)C(C)(C)C	-12	-14
COc1ccc(C(=O)NC(C(=O)NC2CC2)C2CCN(C(=O)c3ccccc3C)CC2)cc1 (stereo not drawn)	4	1
CN1CCN(N=Cc2ccc(N3N=C(c4ccccc4)CC3c3ccccc3)cc2)CC1 (stereo not drawn)	4	7
COc1ccc(C(=O)Nc2ncccc2O)cc1Br	0	-2

One compound at a time (already shown).
COCC(C)NC(=O)c1c(O)nc2scc(C)n2c1=O (stereo not drawn) across the screens: NPYLR7 ag: -3; NPYLR7 ag max-min: 12
Cc1cc(C)c(S(=O)(=O)N(CC(=O)N(Cc2ccccc2)Cc2sccc2C)C(C)C)c(C)c1 across the screens: NPYLR7 ag: 0; NPYLR7 ag max-min: 10
CS(=O)(=O)c1ccc(-c2nccn2CCCc2ccccc2)cc1 across the screens: NPYLR7 ag: 0; NPYLR7 ag max-min: 21

Remaining list, next part
SMILES	NPYLR7 ag	NPYLR7 ag max-min
CSc1ccc(COc2coc(CN3CCN(C(=O)C4COc5ccccc5O4)CC3)cc2=O)cc1 (stereo not drawn)	3	-6
COC(=O)[C@@H]1C[C@@H](NC(=O)c2ccc3cccnc3n2)CN1C	-2&0	-4&-2
CC(=O)CSc1ncnc2c1oc1ccccc12	-6	-8
COc1cc(C2C(C(=O)OC(C)C)=C(C)NC3=C2C(=O)CC(c2ccc(Cl)cc2)C3)ccc1O (stereo not drawn)	6	4
COc1cc(C=Nn2c(C3COc4ccccc4O3)n[nH]c2=S)cc(OC)c1O (stereo not drawn)	-3	-8
C#CC1(OCC(O)CN2CCN(C)CC2)CCCCC1 (stereo not drawn)	-1	18
CCC1(C)NC(=O)N(NC(=O)c2ccc(Cl)s2)C1=O (stereo not drawn)	0	19
Cc1ccc(-c2nnc3n2CCCCC3)cc1NC(=O)C1CSC2(C)CCC(=O)N12 (stereo not drawn)	10	8
O=C(NC(=S)NNc1ccccc1)C12CC3CC(CC(C3)C1)C2	-8	-12
Cc1c(Br)cccc1NC(=O)C1(C)CCN1CCOc1ccccc1 (stereo not drawn)	1	-1
CCCc1cc(=O)[nH]c(-n2nc(C)cc2NC(=O)CC)n1	10	6
CN(C)CCCNC(=O)CC1CSc2nc3c(cnn3-c3ccccc3)c(=O)n21 (stereo not drawn)	3	0
Cc1nc(SCc2ccc(C(=O)NC3CC3)cc2)nc(N2CCN(c3cccc(C(F)(F)F)c3)CC2)c1C	-4	1
CCOC(=O)C1(Cc2cccc(OC)c2)CCN(Cc2c(C)nc3sccn23)CC1	16&6	3&7
Cc1nnc(C(C)Nc2ccc(OC3CCCC3)cc2)o1 (stereo not drawn)	-2	-5
CC(C)(C)n1ncc2c(=O)n(NC(=O)c3ccc(C(F)(F)F)cc3)cnc21	4	1
Cc1cc(C)n(C2CCN(Cc3ccnc(C(C)C)n3)C2)n1 (stereo not drawn)	8	5
CCN(CC)C(=O)N1CCCC(C(=O)Nc2cccc(C)c2C)C1 (stereo not drawn)	2	1
Nn1c(-c2ccc(C(F)(F)F)cc2)n[nH]c1=S	12	9
O=c1[nH]c(=S)[nH]c2nc(-c3cccs3)cc(C(F)(F)F)c12	1	-2
O=C(Nc1ccc(-n2ccnc2)cc1)c1cc(F)cc(Cl)c1O	5	3
COc1ccc(-c2cc(N)n(-c3ccc(C(=O)N4CCCC5CCCCC54)cc3)n2)cc1 (stereo not drawn)	-16	-26
O=C(Cn1nnc(-c2cccc(F)c2)n1)N1CCCCC1	-10	-6
O=C(O)c1ccc(NC2CC2)c(Br)c1	6	5
Cc1ccc2c(N)c(C#N)sc2n1	-1	6
CCn1c(C)c(C(=O)CN(CC2CCCO2)C(=O)c2cccc(Br)c2)c(C)c1C(=O)OC (stereo not drawn)	-5	0
Cc1c(C(=O)NC2CCC(C)CC2)nnn1-c1cccc2c1CCN(C(=O)NC(C)C)C2 (stereo not drawn)	-6	-8
Cc1c(C(=O)NCc2cccnc2)[nH]c2c1C(=O)CCC2	2	2
O=C(NC1CCCCCC1)C1CCN(S(=O)(=O)c2cnc[nH]2)CC1	2	3
CC(C)n1cnc(S(N)(=O)=O)c1	2	403

Among those listed so far, these contain a CF3 group.
SMILES	NPYLR7 ag	NPYLR7 ag max-min
Cc1nc(SCc2ccc(C(=O)NC3CC3)cc2)nc(N2CCN(c3cccc(C(F)(F)F)c3)CC2)c1C	-4	1
CC(C)(C)n1ncc2c(=O)n(NC(=O)c3ccc(C(F)(F)F)cc3)cnc21	4	1
Nn1c(-c2ccc(C(F)(F)F)cc2)n[nH]c1=S	12	9
O=c1[nH]c(=S)[nH]c2nc(-c3cccs3)cc(C(F)(F)F)c12	1	-2

Reformatted bar-delimited: entries from further up
Molecule | NPYLR7 ag | NPYLR7 ag max-min
CCn1c(C)c(C(=O)CN(CC2CCCO2)C(=O)c2cccc(Br)c2)c(C)c1C(=O)OC (stereo not drawn) | -5 | 0
Cc1c(C(=O)NC2CCC(C)CC2)nnn1-c1cccc2c1CCN(C(=O)NC(C)C)C2 (stereo not drawn) | -6 | -8

The results go on.
SMILES	NPYLR7 ag	NPYLR7 ag max-min
O=C(Nc1cccc(CNc2nccc(C(F)(F)F)n2)c1)c1ccco1	1	0
COc1ccccc1-c1cnn2c(C)c(C(=O)NCc3cc(F)cc(F)c3)cnc12	10	-3
NC(=O)C(Sc1ncn[nH]1)c1ccc(Br)cc1F (stereo not drawn)	-7	-8
COc1cc(NC(=O)N(C)C(C)c2ccc(F)cc2)cc(OC)c1 (stereo not drawn)	1	0
Cc1sc2nc(C(C)C)nc(N3CCN(C(=O)C(C)(C)CCl)CC3)c2c1C	11	15
COc1ccc(NC(=O)NNc2nc3c(-c4ccccc4)nnn3c3ccccc23)cc1OC	-4	-5
CCc1nc(C)sc1CNC(=O)C(O)c1ccc(Cl)cc1 (stereo not drawn)	0	-2
COc1ccc(C2CC(c3cccc(F)c3)=NN2C(=O)CN2CCCC2)c(OC)c1 (stereo not drawn)	0	12
C=c1[nH]c(=Cc2ccco2)c(=O)o1	1	-2
Clc1ccccc1N=c1oc2ccc3ccccc3c2cc1-c1nc2ccccc2[nH]1	3	13
CC(C)c1noc(-c2ccc(NC(=O)N(C)Cc3cccc(Cl)c3)cc2)n1	3	-1
CCOC(=O)C(NNS(=O)(=O)c1ccc(C)cc1)(NC(=O)CC(C)C)C(F)(F)F (stereo not drawn)	12	5
O=C(CCc1cccs1)NC1CCSc2ccccc21 (stereo not drawn)	9	6
Cc1ccc(OCC(=O)N=Nc2c(O)[nH]c3c(C)cc(C)cc23)cc1	-5	-7
Cc1cc(C)n2ncc(CN(C)CC(C)N3CCOCC3)c2n1 (stereo not drawn)	5	3
C1CCc2sc(CN(CC3CCN(C4CCCC4)CC3)CC3CCCO3)nc2C1 (stereo not drawn)	0	-1
CCc1ccc(NCN2C(=O)c3ccccc3C2=O)cc1	1	-6
Cc1ccccc1Cn1c(C)c(C(=O)N(C)Cc2ccc(F)cc2)sc1=O	-8	-1
COc1cccc(C2Nc3ccccc3N=C3CC(c4ccccc4)CC(=O)C32)c1OC (stereo not drawn)	-10	-12
O=C(/C=C/c1cn(-c2nc(-c3ccccc3)c3cc(Br)ccc3n2)[n+](-c2ccccc2)c1)c1ccccc1	10	15
COc1ccccc1N1CCN(C(=O)CCN(CC(C)C)c2nc(Cc3ccc(C)cc3)ns2)CC1	-4	6
Cn1nc(C2CC2)cc1NC(=O)C1(C)CCN1C(=O)c1ccccc1CCc1ccccc1 (stereo not drawn)	5	4
Cc1ccc(C)c(Cn2nc(-c3ccc(F)cc3)c3sc(N4CCOCC4)nc3c2=O)c1	-3	-5
Cc1ncnc2c1ncn2-c1ccc(N)nc1	-7	-12
c1cc(-c2nc3c4c5c(sc4ncn3n2)CCCCC5)ccn1	8	6
COc1ccc(OC)c(-c2nc(CN(C)C(C)c3ccncn3)c(C)o2)c1 (stereo not drawn)	7	12
CCCN(C(=O)c1ccc(=O)n(C)n1)S(=O)(=O)c1ccc(Cl)cc1	0	-1
CCOC(=O)CNc1c(C2CCCCC2)nc2c(OCc3ccccc3)cccn12	0	-2
COC(=O)CCC1CCCCN1C(=O)CS(C)(=O)=O (stereo not drawn)	7	0
C=CCc1cc(CN2CCN(C)C3(CCN(C)CC3)C2)cc(OCC)c1O	14	-1
O=C(Cc1ccc2ccccc2c1)NNC(=O)c1cccc(S(=O)(=O)N2CCOCC2)c1	3	2
CC(=O)NCCCn1c(C)csc1=Nc1ccc2c(c1)CCC2	14	13
CCCC(=O)NCCNc1ccc(Nc2ccncc2)nn1	9	3
Cc1nc2ccc(S(=O)(=O)c3ccc4nc(C)[nH]c4c3)cc2[nH]1	27	23
COc1ccc(NC(=O)CCC2CCCN(CCCC(F)(F)F)C2)c(C)c1 (stereo not drawn)	-9	-8
Cc1cc(C(C)NC(=O)c2ccc(NC(=O)NC3CC3)cc2)c(C)s1 (stereo not drawn)	1	2
Cc1cc(Nc2ccccc2)n(-c2ccc([N+](=O)[O-])cc2)n1	-5	-7
Cc1ccc(C)c(C2c3cccn3CCCN2Cc2ccc3c(c2)OCCO3)c1 (stereo not drawn)	-9	6
CCOCCn1c(=O)c2c(nc3n(CC4CCCO4)c(C)c(C)n23)n(C)c1=O (stereo not drawn)	7	2
COc1cc(-c2noc(CN3CCOC(C)C3)n2)ccc1C (stereo not drawn)	3	1
COC(CNC(=O)c1cc(C(N)=O)cs1)C(C)(C)C (stereo not drawn)	3	2
C=CC(=O)Nc1cccc(Sc2nc(Nc3ccc(N4CCN(C)CC4)cc3)ncc2Cl)c1	-7	-12
C=CCN=c1scc(-c2ccccc2)n1N=Cc1ccc(O)cc1O	-7	-12
CN1CC2(CCN(C(=O)CCc3cn4ccccc4n3)CC2)CC1C(=O)O (stereo not drawn)	3	4
O=C(CSc1nnc(-c2ccco2)n1C1CCCCC1)N1CCCCC1	6	1
COc1ccc2c(=O)c(Br)cccc2c1OC	-5	-5
CCOC(=O)CNC(=O)CSc1nc2c([nH]c3ccccc32)c(=O)n1-c1ccccc1F	-2	-2
Cc1ccccc1OCC(=O)Oc1coc(CSc2ncccn2)cc1=O	-11	-6
O=C(O)c1cccc(-n2c(C3C4CCCCC43)n[nH]c2=S)c1 (stereo not drawn)	-8	-13
CNC(=O)C1CCN(C(=O)c2ccc(-c3ccc(Cl)cc3)o2)CC1	-1&0	-1&-7
COc1ccccc1-c1c(C(F)(F)F)oc2c(CN(C)C3CCCCC3)c(O)ccc2c1=O	5	2
CCSc1nnc(NC(=O)CSc2nnc(NC(=O)C(CC)CC)s2)s1	-9	-18
COc1ccc2ccccc2c1C1N(c2ccc(F)cc2)C(=O)C2CCCN21 (stereo not drawn)	-5	-7
CCN(CC)CC(=O)NCc1cccnc1N1CCOCC1	9	10
COC(=O)c1ccc2c(=O)n(-c3cccc(OC)c3)c(N3CCN(c4ccccn4)CC3)nc2c1	-2	-4
Cc1nc2c(c(N(C)C)n1)CCN(S(=O)(=O)c1c(C)nn(C)c1Cl)C2	5	1
Cc1cc(NC(=O)CCc2ccco2)ccc1N1CCN(C)CC1	4	2
CCCCC(=O)Nc1c(-c2ccc(C)cc2)nc2cc(C)ccn12	8	13
CCOC(=O)c1cc(-c2cccc(NC(=O)c3cc(C)nn3C)c2)n(-c2ccc(OC)cc2)n1	-4	-5
O=C(Nc1ccc(C(=O)Nc2ccc(N3CCCCC3)cc2)s1)c1ccco1	2	1
Continuation.
SMILES	NPYLR7 ag	NPYLR7 ag max-min
CC(c1cccc(O)c1)N(C)CC(=O)NC(C)(C#N)C(C)C (stereo not drawn)	1	-1
CCCCNC(=O)C1CCC(C)N(CC(=O)Nc2nc(CC)c(C)s2)C1 (stereo not drawn)	1	11
COc1ncc(CN(C)Cc2ccc3nsnc3c2)cn1	-4	-5
Cc1noc(N=CN(C)C)c1Sc1ccccc1[N+](=O)[O-]	-5	-13
CCCc1[nH]n(-c2cccc(Cl)c2)c(=O)c1C1=C([n+]2ccccc2)C(=O)N(Cc2ccccc2)C1=O	5	4
CCC(C(=O)Nc1nnc(SCc2ccc(C(F)(F)F)cc2)s1)c1ccccc1 (stereo not drawn)	0	6
CCN(CC)S(=O)(=O)c1ccc(C(=O)Nc2c(C)nc3scc(C)n3c2=O)cc1	8	1
CCOC(=O)C1CCN(C(c2ccc(C)cc2)C2Sc3nc(CC)nn3C2=O)CC1 (stereo not drawn)	0	10
C=CCn1c(N)c(C(=O)NCC)sc1=S	5	9
CCOC(=O)C1CCCCN1CC(=O)N1N=C(c2ccccc2F)CC1c1ccccc1 (stereo not drawn)	-1	4
